Mtb hypoxia inh: reduces hypoxia-regulated biosensor signal in M. tuberculosis | M. tuberculosis hypoxia-regulated fluorescent reporter, fluorescence | fluorescence inhibition, % (test concentration not listed) | 300,000 tested, 0.1% active;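 active = 35 to 45% if threefold the growth effect, above 45% if 1.5-fold the growth effect; inactive = the rest, general growth blockers included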;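 also: wells of about 50 µL received 100 nL stock; 0% = vehicle wells and 100% = reference inhibitor wells; whole bacteria with a GFP reporter of the hypoxia response; strong numbers were not always called active; many hits fall short of the cut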
PrP 5UTR inh: suppresses PrP 5' UTR mRNA reporter expression | 340,000 tested, 0.35% active | inhibition, % (concentration not given with the values) | AID 488862 | cell-based PrP 5' UTR mRNA reporter, plate reader;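 active = every replicate at 50% or more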;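 also: 0 = median of the neutral control wells; tested in H4 reporter cells; numbers are from one replicate; inactives centre near -14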
ugtP null kill: kills S. aureus RN4220 lacking UgtP | S. aureus RN4220 ugtP deletion, OD600 growth, 16 h; some inactives read as strong as hits | growth inhibition, % (test concentration not listed) | 330,000 tested, 0.54% active;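 active = z-score under -3 and OD600 up to 0.15 on both plates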;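 also: plate controls were untreated wells for no effect and antibiotic for full effect; wells of about 80 µL received 100 nL stock; the first replicate is given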
Autofluor counter: compound fluorescence in toxin protease inhibitor counterscreen; 360,000 tested, 3.1% active; AID 624483; fluorescence intensity (test concentration not listed); compound autofluorescence counterscreen, microsphere flow cytometry; active compounds read high;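 active = at least 3 SD above the mean of all compounds, about 16000 in these data; inconclusive = too few beads counted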;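 also: 100 nL of 1 mM stock went into each well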
RN4220 kill: kills Staphylococcus aureus RN4220; AID 1259311; 330,000 tested, 0.33% active; S. aureus RN4220 growth, OD600, 16 h; inhibition, % (test concentration not listed);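 active = z-score of -3 or lower and OD600 up to 0.18 on both plates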;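 also: plate controls were untreated cells for no effect and reference antibiotic for full effect; stock transfer was 100 nL into about 80 µL; one replicate is shown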
BJeLR lethal: kills HRASV12-expressing BJeLR cells; BJeLR (HRASV12) viability, CellTiter-Glo ATP luminescence, 48 h; reference of the scale not given here; inhibition, % (test concentration not listed); 300,000 tested, 0.17% active;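 active = replicate mean above 50%; inconclusive = above 50% but judged a plate artefact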;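 also: 50 nL library stock added to about 25 µL; numbers are from one replicate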
Mtb hypoxia inh growth: further read-out of Mtb hypoxia inh, marked with its call; growth inhibition, %; measured here: M. tuberculosis growth (absorbance);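 0% = vehicle and 100% = reference antibiotic; read after six days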
Starred values were filed as active, the others as inactive; ? = inconclusive; nt = not tested or not shown.

Sequence of screens – Mtb hypoxia inh, Mtb hypoxia inh growth, PrP 5UTR inh, ugtP null kill, Autofluor counter, RN4220 kill, BJeLR lethal
1: O=C(O)C1(NS(=O)(=O)c2ccc(F)c(Cl)c2)CCCCC1
    7.2, 10.1, -12.8, 4.4, 10296, 2.8, -6.2
2: Cc1ccc(N/N=C/c2c(O)cc(C)oc2=O)cc1
    nt, nt, -9.9, nt, 2693, nt, -1.3
3: COc1ccc2cc3cc(C(=O)NC4CC4)sc3nc2c1
    9.6, 8.0, 13.0, -3.0, 6054, -0.5, -4.2
4: CCc1ccc(CN2CCCC(C(=O)Nc3ccc(-c4cscn4)cc3)C2)o1 (centres undefined)
    6.7, 0.1, -11.9, -0.3, 5702, 0.5, -2.9
5: COc1ccc(-c2cc(-c3ccccc3)c(C#N)c(S(C)=O)n2)cc1 (centres undefined)
    nt, nt, -14.1, 7.9, 4345, 5.1, 5.4
6: CC1CCCCN1C(=O)CCn1c(=O)oc2ccccc21 (centres undefined)
    6.8, 8.8, -10.1, 5.3, 6078, 1.1, -11.7
7: Oc1c(Br)cc(C=Nn2c(-c3ccccc3)n[nH]c2=S)cc1Br
    9.9, 2.3, nt, 9.1, nt, 8.4, nt
8: COc1cccc(-c2nn(-c3ccccc3)cc2C(=O)OCC(=O)Nc2ncc(Cl)cc2Cl)c1
    -1.8, 12.0, -3.6, -29.9, 10651, 3.4, 2.0
9: NS(=O)(=O)c1ccc(CCNC(=O)COC(=O)C2CCN(c3ccc(C(F)(F)F)cn3)CC2)cc1
    1.8, 8.8, -27.4, 2.8, ?, 1.7, -6.5
10: O=S(=O)(c1ccc(NCCOc2ccccc2)nc1)N1CCCC1
    12.2, 4.8, -7.4, 6.9, 4234, 3.2, nt
11: COCCCN1C(=O)c2ccc(C(=O)Nc3ccccc3Cl)cc2C1=O
    -0.6, -3.8, 6.3, 3.0, 3584, -0.7, -2.1
12: CCOc1ccc(NC(=S)NC(C)CCc2ccccc2)cc1 (centres undefined)
    -10.2, 2.2, -21.1, 8.9, 4788, 2.6, 10.9
13: CC(C)(C)N(NC(=O)Nc1ccc(F)cc1)C(=O)c1ccccc1
    6.6, 1.5, -30.8, 0.6, 7876, 8.9, 7.1
14: COc1cc(CN2CCSCC2)c([N+](=O)[O-])cc1OC
    13.8, -2.5, -24.3, 8.6, 3479, 3.7, 9.9
15: O=S(=O)(Nc1ccc2c(c1)OCO2)c1cccs1
    9.8, 3.6, 1.0, 2.9, 3407, 3.9, -3.0

A second format for part of the listing above:
item	SMILES	Mtb hypoxia inh	Mtb hypoxia inh growth	PrP 5UTR inh	ugtP null kill	Autofluor counter	RN4220 kill	BJeLR lethal
1	O=C(O)C1(NS(=O)(=O)c2ccc(F)c(Cl)c2)CCCCC1	7.2	10.1	-12.8	4.4	10296	2.8	-6.2
2	Cc1ccc(N/N=C/c2c(O)cc(C)oc2=O)cc1	nt	nt	-9.9	nt	2693	nt	-1.3
3	COc1ccc2cc3cc(C(=O)NC4CC4)sc3nc2c1	9.6	8.0	13.0	-3.0	6054	-0.5	-4.2
4	CCc1ccc(CN2CCCC(C(=O)Nc3ccc(-c4cscn4)cc3)C2)o1 (centres undefined)	6.7	0.1	-11.9	-0.3	5702	0.5	-2.9
5	COc1ccc(-c2cc(-c3ccccc3)c(C#N)c(S(C)=O)n2)cc1 (centres undefined)	nt	nt	-14.1	7.9	4345	5.1	5.4
6	CC1CCCCN1C(=O)CCn1c(=O)oc2ccccc21 (centres undefined)	6.8	8.8	-10.1	5.3	6078	1.1	-11.7
7	Oc1c(Br)cc(C=Nn2c(-c3ccccc3)n[nH]c2=S)cc1Br	9.9	2.3	nt	9.1	nt	8.4	nt
8	COc1cccc(-c2nn(-c3ccccc3)cc2C(=O)OCC(=O)Nc2ncc(Cl)cc2Cl)c1	-1.8	12.0	-3.6	-29.9	10651	3.4	2.0
9	NS(=O)(=O)c1ccc(CCNC(=O)COC(=O)C2CCN(c3ccc(C(F)(F)F)cn3)CC2)cc1	1.8	8.8	-27.4	2.8	?	1.7	-6.5
10	O=S(=O)(c1ccc(NCCOc2ccccc2)nc1)N1CCCC1	12.2	4.8	-7.4	6.9	4234	3.2	nt
11	COCCCN1C(=O)c2ccc(C(=O)Nc3ccccc3Cl)cc2C1=O	-0.6	-3.8	6.3	3.0	3584	-0.7	-2.1
12	CCOc1ccc(NC(=S)NC(C)CCc2ccccc2)cc1 (centres undefined)	-10.2	2.2	-21.1	8.9	4788	2.6	10.9

Complete entries, quoted from the list. Order of screens: Mtb hypoxia inh | Mtb hypoxia inh growth | PrP 5UTR inh | ugtP null kill | Autofluor counter | RN4220 kill | BJeLR lethal
COCCCN1C(=O)c2ccc(C(=O)Nc3ccccc3Cl)cc2C1=O as listed: -0.6 | -3.8 | 6.3 | 3.0 | 3584 | -0.7 | -2.1
CC1CCCCN1C(=O)CCn1c(=O)oc2ccccc21 (centres undefined) as listed: 6.8 | 8.8 | -10.1 | 5.3 | 6078 | 1.1 | -11.7

(listing goes on)
Sequence of screens – Mtb hypoxia inh, Mtb hypoxia inh growth, PrP 5UTR inh, ugtP null kill, Autofluor counter, RN4220 kill, BJeLR lethal
16: O=C(c1ccc(Cl)cc1)N1N=C(c2ccccn2)CC1(O)C(F)(F)F (centres undefined)
    4.7, 4.5, 15.8, -5.6, 4406, 29.0, 2.6
17: CCN(CC)C(=O)Oc1ccnc2cc(Cl)ccc12
    0.7, -3.1, -23.9, 2.5, 5238, 3.4, -6.8
18: O=C(NC(Cc1c[nH]c2ccccc12)C(=O)N/N=C/c1cccnc1)c1cccs1 (centres undefined)
    nt, nt, -40.9, nt, 4700, nt, -0.2
19: c1cnc2ccc(C(c3nnnn3C3CCCC3)N3CCSCC3)cc2c1 (centres undefined)
    12.5, 5.2, -41.6, -3.4, 2880, -9.3, -3.5
20: COc1ccccc1-c1nc(C#N)c(N2CCN(c3ccccc3)CC2)o1
    12.6, 6.1, -4.4, -24.3, 2872, -5.3, 8.1
21: COc1cc(/C=N/NC(=O)CCn2c3ccccc3c3ccccc32)cc(OC)c1OC
    nt, nt, 3.2, nt, 2277, nt, -1.5
22: CCOCCCNC(=S)Nc1ccc2nc3n(c(=O)c2c1)CCCCC3
    3.8, -0.8, -22.7, 2.0, 3079, 3.6, nt
23: COc1ccc(NC(=S)NCCc2ccccc2)c(C)c1
    -9.4, -1.9, -10.7, 3.2, 5197, 2.1, -6.0
24: CCOC(=O)c1[nH]n(-c2ccc(Cl)cc2)c(=O)c1C
    4.9, 3.1, -12.6, -1.5, 2540, 3.2, -29.3
25: COc1ccc(NC(=O)CCn2cccc2)c(OC)c1
    20.1, 4.4, -3.1, 6.3, 3222, -2.3, nt
26: CC(=O)C1=C(O)C(=O)N(CCc2c[nH]c3ccccc23)C1c1ccco1 (centres undefined)
    0.1, 3.4, -12.9, 7.5, 3692, 5.8, -4.1
27: COc1ccc(S(=O)(=O)N2CCCCCC2)cc1C(=O)OCc1cccc(OC)c1OC
    0.5, 2.9, -3.6, 2.1, 5675, 1.9, -4.2
28: O=P(NC1CCCCC1)(c1ccccc1)c1ccccc1
    12.8, 14.4, -21.1, 6.0, 3696, 1.1, nt
29: O=C(COc1ccc(F)cc1Cl)NC1CCCCCC1
    9.6, 4.4, -55.0, -5.6, 2985, 3.8, nt
30: O=C(NN=Cc1coc2ccccc2c1=O)c1cn(-c2ccccc2)nc1-c1ccc(F)cc1
    0.4, -0.9, nt, 0.3, nt, 5.8, nt
31: COc1ccc(N2CCN(C(=O)Cc3csc(NC(=O)Nc4ccccc4OC)n3)CC2)cc1
    -0.7, 8.8, -65.6, -5.5, 5156, 3.2, -3.3
32: CC1=C(C(=O)OC2CCCCC2)C(c2cccnc2)n2ncnc2N1 (centres undefined)
    8.9, -0.3, -20.9, 4.2, 8762, 3.7, -4.7
33: CCC(C(=O)O)P(=O)(c1ccc(Cl)cc1)c1ccc(Cl)cc1 (centres undefined)
    nt, nt, -9.9, nt, 3594, nt, 3.1
34: CC12COC3(C(=O)N4CCN(c5ccccn5)CC4)CC1CCC32C (centres undefined)
    -0.7, 0.2, -24.7, 6.6, 4928, 2.1, 0.5
35: COc1ccc(C)cc1NC(=O)CN(c1ccc(C)cc1)S(C)(=O)=O
    1.9, 2.2, -10.2, 3.0, 2535, 4.7, -9.1
36: CCC(C)[C@H]1COCCS(=O)(=O)N1Cc1ccccc1F (some centres undefined)
    nt, nt, -11.8, nt, 4177, nt, -1.8
37: Cc1ncc(CO)c(/C=N/NC(=O)c2ccc(O)cc2)c1O
    nt, nt, -8.3, nt, 2040, nt, -1.7
38: COc1ccccc1CCCNC(=O)C1CCC(=O)N(CCc2ccc(Cl)cc2)C1 (centres undefined)
    2.2, 1.4, -4.7, 9.5, 4594, -1.4, 5.3
39: OC(CNCCNc1ncccc1C(F)(F)F)COc1ccc(F)cc1 (centres undefined)
    -0.7, 11.1, -13.3, 4.2, 6107, 1.2, -4.1
40: COc1ccc(CN(C(=O)c2oc3ccc(F)cc3c2C)C2CCS(=O)(=O)C2)cc1 (centres undefined)
    6.8, 2.9, -8.7, -4.6, ?, -2.0, 6.5
41: O=C1NCCN(Cc2c(F)cccc2Cl)C1CC(=O)N1CCCO1 (centres undefined)
    -13.9, 1.6, -13.1, -6.6, 2085, -4.0, -5.0
42: O=C(CP(=O)(CO)CO)c1ccc(Cl)cc1
    7.1, 7.9, -61.0, -0.8, 5068, 5.9, -1.4
43: Cc1cc2cc(C(c3nnnn3C3CCCC3)N(Cc3cccnc3)Cc3ccco3)c(=O)[nH]c2cc1C (centres undefined)
    -0.9, 5.9, -18.9, -2.5, 10121, 3.7, -3.4
44: COC(=O)[C@H]1C[C@@H]1[C@H](NS(=O)(=O)c1ccccc1)c1ccccc1
    nt, nt, 2.4, nt, 3592, nt, -5.5
45: C=C(C)CNC(=S)NN=Cc1c(F)cccc1F
    -4.1, 8.1, nt, 0.4, nt, 1.0, nt
46: CN(C)c1ccc(NC(=O)CN2C3CCCC2CC(NC(=O)c2ccccc2)C3)cc1 (centres undefined)
    12.5, 14.1, -15.6, 4.7, 4077, 1.0, -6.1
47: Cc1ccc(C(=O)Nc2cccnc2)cc1[N+](=O)[O-]
    7.6, -1.0, -17.5, 6.4, 2514, 2.5, 1.3
48: COc1ccccc1N1CCN(C2CCN(C(=O)c3cccc(F)c3)CC2)CC1
    6.8, 12.2, -10.1, 7.9, 2129, 2.0, 10.4
49: COc1ccc(NS(=O)(=O)c2cccc(C(=O)O)c2)cc1S(=O)(=O)N1CCCCC1
    -3.0, -5.0, -5.4, 2.4, nt, -1.2, nt
50: CCSc1nnc(NC(=O)NCC(F)(F)F)s1
    -2.3, -6.5, -2.0, 6.7, 2401, 19.0, -12.0
51: Cc1ccnn1CC(=O)NN=Cc1ccc2c(c1)OCO2
    11.9, 2.4, nt, 7.7, nt, 7.0, nt
52: COc1cc(/C=C2/N=C(c3ccccc3)OC2=O)c(F)cc1OCc1ccccc1
    nt, nt, -8.5, nt, 3890, nt, 6.8
53: CC(C)CN(CCNC(=O)CN1N=C(c2ccc(Cl)cc2)CCC1=O)CC(C)C
    2.5, 1.8, -1.0, -3.4, 3213, 3.1, -0.5
54: Cc1sc2nc(SCC(=O)NCCOCCO)n(C)c(=O)c2c1C
    0.6, 3.9, 4.3, -0.6, 21931*, 1.3, nt
55: CCOc1ccc(CCNC(=O)c2cccc(C#N)c2)cc1OCC
    -9.4, 0.0, -22.6, 0.6, 3740, -0.2, -6.7
56: CC12CCC3C(CC=C4CC5(CCC43C)OCCO5)C1CCC2=O (centres undefined)
    nt, nt, 32.5, nt, 4198, nt, 4.6
57: CCN(Cc1cc(=O)[nH]c2ccccc12)C(=O)C(C)C
    13.7, -6.0, 2.9, 2.1, 4098, 4.8, 12.4
58: Cc1cc(C)c2ccc(C)[n+]([O-])c2c1O
    2.8, 4.3, -37.0, 4.4, 4633, 2.8, 6.1
59: COc1ccc(N2CCN(C(=O)C(NC(=O)c3c(F)cccc3F)C(C)C)CC2)cc1 (centres undefined)
    4.4, 14.1, -10.5, 6.0, 5168, 5.5, 2.6
60: CCCCCCN1C(=O)C(O)=C(C(C)=O)C1c1ccc(Cl)cc1 (centres undefined)
    nt, nt, -11.0, -3.9, 4876, 32.2, 2.6
61: O=C(c1ccccc1)c1ccc(CN2C(=O)c3ccccc3C2=O)o1
    5.6, 8.8, -28.2, -1.3, 8338, 0.4, 5.2
